Screens (PubChem BioAssay)
Vaccinia mCherry – inhibitors of vaccinia virus infection (mCherry reporter signal); Vaccinia virus mCherry reporter infection, fluorescence; about a quarter of the inactives have no number; Potency, µM (titrated, usually from 36.5 µM), for inactives: top-dose activity change, negative = inhibition, most hits filed as inhibitors; 310,000 compounds, 0.63% hits; active = well fitted inhibition curve with a large enough effect; inconclusive = small, poorly fitted or top-dose-only effect; inactive = no such curve, though single readings can be large or run the other way; tested in A549 cells; also: nearly all actives have a fitted effect of over 35% in size; inactives centre near -10
VACV Venus inh – vaccinia inhibition (Venus reporter); Potency, µM (titrated, usually from 36.5 µM), for the others: top-dose activity change, negative = inhibition, hits mostly inhibitors; AID 720580; Vaccinia virus Venus reporter expression, fluorescence; 330,000 compounds, 0.46% hits; active means well fitted inhibition curve with a large enough effect; inconclusive means small, poorly fitted or top-dose-only effect; inactive means no such curve, though single readings can be large or run the other way; tested in A549 cells; also: nearly all actives have a fitted effect of over 30% in size; inactives centre near -10
Numbers without * were called inactive; i = inactive; u = inconclusive; x = not tested or not shown; & = joins results of further samples; [ ] = dose if it differs, or a comment. % is scaled to controls: 0 for no effect and ±100 for the full control effect; potency is read from the fitted curve at half-maximal effect.

SMILES	Vaccinia mCherry	VACV Venus inh
COC(=O)[C@@]1(Cc2ccc(F)cc2)[C@H]2c3cc(C(=O)N(C)C)n(CCCNc4ncc(C(F)(F)F)cc4Cl)c3C[C@H]2CN1C(=O)c1ccccc1	u	u
Cc1ccc(/C=C/c2onc(C)c2S(=O)(=O)N2CCC(C(=O)Nc3ccc(C)c(N(C)C)c3)CC2)cc1	-13%[7.34 µM]	-12%[7.34 µM]
Cc1ccc(-c2nc(S(=O)(=O)c3ccccc3)c(N3CCN(c4ccccc4)CC3)o2)cc1	-16%	-11%
Cc1ccccc1Oc1ccc2c(c1)[C@@H]1C[C@H]3[C@@H](C(=O)N1CC2)[C@H](C)ON3C	u	-21%
CCc1nn(CC(=O)NCCOC)c(=O)c2cc3cc(F)ccc3n12	7%	3%
O=C(Nc1nc(-c2ccc(Cl)cc2)cs1)c1cccnc1	-5%	-20%
Cn1nnc2c(N3CCN(c4ccccc4Cl)CC3)ncnc21	-17%	-15%
Nc1nccnc1C(=O)OCC(=O)NNC(=O)c1ccccc1	i	0%
COc1ccc(CC(C)N2CCN(c3ccccc3)CC2)cc1OC (configuration not stated)	i	-8%
O[C@@H]1CN(Cc2cccs2)[C@@H](c2ccccc2)C[C@H]1n1cc(-c2ccc(F)cc2)nn1	i	-20%
N#Cc1c(F)cccc1N1CCN(Cc2ccc3c(c2)OCO3)CC1	u	-6%
CN1CCN(c2nc3c(c(=O)[nH]c(=O)n3C)n2Cc2ccccc2F)CC1	i	-10%
C/C=C(\C)C(=O)Nc1cccc(C2=NOC3(C2)C[C@@H](C(N)=O)N(C(=O)c2ccccc2C(=O)c2ccccc2)C3)c1 (some centres not stated)	7%	-5%
O=C(Cc1ccc(Cl)c(Cl)c1)N/N=C/c1cccnc1	-1%	-5%
COc1cc(OC)c(NC(=O)Cc2cccs2)cc1Cl	-24%	-22%
CC(OCC(O)CNCC1COc2ccccc2O1)c1ccc(Cl)cc1 (configuration not stated)	-15%	-19%
COc1cc(OC)cc(C(=O)Nc2ccc(NC(=O)c3ccco3)c(Cl)c2)c1	u	u
CCOc1cccc(C(=O)NC(=S)Nc2cccc(NC(=O)c3ccccc3Cl)c2)c1	-25%	-13%
CN1CCN(C(=O)c2ccc(Cl)cc2)CC1	-21%	-19%
Cc1cc(OCC(=O)N2CCN(CCc3ccncc3)CC2)ccc1Cl	i	-12%
O=C(N/N=C/c1ccco1)c1cccc(N2CCCC2=O)c1	-10%	-1%
O=C(Nc1ccn(CCCN2CCN(Cc3cccc4ccccc34)CC2)c(=O)n1)OCc1ccccc1	u	u
COc1ccc(-c2nnc(SCC(=O)Nc3ccc(C(C)C)cc3)nc2-c2ccc(OC)c(OC)c2)cc1OC	-28%	u
COc1cccc(-c2nc(CS(=O)(=O)CC(=O)Nc3cccc(C(C)=O)c3)c(C)o2)c1	-1%&-15%	-5%&-10%
CC(=O)Nc1ccc(Nc2ccc([N+](=O)[O-])cn2)cc1	-13%	-19%
CN(CC1COc2ccccc2O1)C(=S)NC1CCCCC1 (configuration not stated)	-21%	-20%
C=CCNC(=S)NS(=O)(=O)c1cccs1	i	3%
CCN(CC)S(=O)(=O)c1ccc(OC)c(-n2cnnn2)c1	-5%&15%	-7%&6%
O=C(COC(=O)c1ccc(S(=O)(=O)N2CCc3ccccc3C2)cc1)NC(=O)NCc1ccco1	i	-6%
CCOC(=O)c1cnn2c(C(F)(F)F)cc(-c3ccccc3)nc12	i	-10%
COc1ccc(-c2cc(C(F)F)nc(-n3nc(C)cc3C)n2)cc1	i	-13%
CCCCN(CCCC)Cc1cc(=O)oc2cc(OC)ccc12	17%	-9%
CC1CCCN(C(C(=O)Nc2ccc(C(C)C)cc2)c2ccc3c(c2)OCO3)C1 (configuration not stated)	8%	-6%
CC(C)NC(=O)Nc1ccc2c(c1)C(=O)N([C@H](C)CO)C[C@H](C)[C@@H](CN(C)S(=O)(=O)c1cccs1)O2	-18%	-13%
COC(=O)c1ccc(Cn2nc(C(F)(F)F)cc2C)cc1	-22%	-13%
Cc1nn(-c2cc(N3CCOCC3)ccc2[N+](=O)[O-])c(=O)c2ccccc12	-1%	-9%
CCCCN1C(=O)C(=Nc2cccc3cnccc23)c2ccccc21	-7%	-4%
CC(C)CNCC1OCc2ccccc2CO1	-17%	-4%
Cc1ccc(C(=O)O/N=C/c2c(Cl)n(C)c3ccccc23)cc1	x	-21%
CC(C)Cc1nn2c(=O)cc(COC(=O)c3ccc(NC(=O)CCc4ccccc4)cc3)nc2s1	-11%	-4%

Fetched by compound from the entries so far (two):
SMILES	Vaccinia mCherry	VACV Venus inh
C=CCNC(=S)NS(=O)(=O)c1cccs1	i	3%
COC(=O)c1ccc(Cn2nc(C(F)(F)F)cc2C)cc1	-22%	-13%

Further records.
SMILES	Vaccinia mCherry	VACV Venus inh
CC1=C(c2ccc(C(C)C)cc2)S(=O)(=O)N=C1N1CCC(C(=O)NCCc2ccco2)CC1	-19%	-15%
COC(=O)C1CC(=O)N(c2ccc(C)cc2)C1 (configuration not stated)	i	-14%
Cc1cc(C)n(-c2ccc(C(=O)Nc3nc4ccccc4s3)cc2)n1	-23%	u
COc1ccc(-n2nc(C#N)c(Cl)cc2=O)cc1	11µM*	10µM*
COc1ccc(-c2[nH]ncc2C(=O)NCc2ccccc2OC)cc1	-16%	-13%
Cc1ccc2ncnc(NCCCN3CCOCC3)c2c1	i	-19%
CCCOc1ccc(-c2nc(SCc3ccccc3)[nH]c(=O)c2C#N)cc1OC	-13%	-1%
CCN(CC)C(=O)c1cc(-c2ccc(Cl)cc2)on1	-14%	-1%
Cc1ccc(Sc2ncccc2O)cc1	-15%	-8%
CCc1ccc(NC(=O)[C@H](C)NC(=O)C2CCN(C(=O)[C@@H](N)Cc3ccccc3)CC2)cc1	9%	-3%
Nn1c(SCC(=O)N2CCOCC2)nnc1-c1ccccc1Cl	-1%	-5%
CN1C(=S)N2CCCN2C1c1ccccc1 (configuration not stated)	i	-1%
Cc1c(/C=N/NC(=O)c2cc(C(C)(C)C)[nH]n2)c2ccccc2n1C	i	-5%
COc1ccc(N2Cc3ccccc3C2=NC(=O)c2ccc(C)cc2)cc1OC	u	-13%
NNC(=O)/C(=N/Nc1ccccc1)S(=O)(=O)c1ccc(Cl)cc1	u	-29%
COC(C(=O)Nc1ccc(S(=O)(=O)Nc2ccc(F)cc2)cc1)c1ccccc1 (configuration not stated)	u	u
CC(=O)Nc1cc(-c2ccc(N3CCN(C)CC3)cc2)cn2c(-c3ccc(S(C)(=O)=O)cc3)cnc12	6%	-16%
COC(=O)c1cc(Br)c(=O)n(-c2ccccc2OC)c1	x	-5%
Cc1cc(-c2csc(N)n2)c(C)n1CCC(C)C	x	4%
COCCNC(=O)Cn1cc(/C=C(\C#N)C(=O)NC2CC2)c2ccccc21	-7%	-5%

Single records (already shown). Order of screens: Vaccinia mCherry, VACV Venus inh
Entry for `Nn1c(SCC(=O)N2CCOCC2)nnc1-c1ccccc1Cl` : -1%, -5%
Entry for `CCN(CC)C(=O)c1cc(-c2ccc(Cl)cc2)on1` : -14%, -1%
Entry for `Cc1ccc2ncnc(NCCCN3CCOCC3)c2c1` : i, -19%
Entry for `COCCNC(=O)Cn1cc(/C=C(\C#N)C(=O)NC2CC2)c2ccccc21` : -7%, -5%
Entry for `COc1ccc(-c2[nH]ncc2C(=O)NCc2ccccc2OC)cc1` : -16%, -13%

Later entries.
SMILES	Vaccinia mCherry	VACV Venus inh
Cc1cccc(OCC(=O)NCC(=O)N/N=C/c2cc(Br)ccc2OCc2ccccc2)c1	u	-17%
CCN1CCN(C(=O)C2c3cc(OC)c(OC)cc3C(=O)N3CCc4ccccc4C23)CC1 (configuration not stated)	i	-24%
CNCC(=O)N(CC(C)C)c1c(N)n(CC(C)C)c(=O)[nH]c1=O	i	-1%
COC(=O)CSc1nc2ccccc2nc1SCC(=O)OC	-8%	0%
Cc1cc(C)n(C(=O)CNC(=O)C(c2ccccc2)c2ccccc2)n1	x	-5%
CC(/C=N/N1CCN(Cc2ccccc2)CC1)=C\c1ccccc1	-19%	-2%
CC1CC(C)CN(CCOc2ccccc2-c2ccccc2)C1 (configuration not stated)	-5%	-3%
COc1cccc(OCCNC(=O)c2ccccc2Sc2ccccc2C#N)c1	-11%	-21%
CCOC(=O)C1CCCN(C(=O)c2ccc3c(c2)OCO3)C1 (configuration not stated)	-13%	-16%
Cc1cccc(NC(=O)NCc2ccc3c(c2)cc(C)n3C)c1	-8%	18%
Cc1cc(C)c2oc(-c3cccc(NC(=O)c4ccc(-c5cccc([N+](=O)[O-])c5)o4)c3)nc2c1	4%	2%
CCOC(=O)C1CC(c2ccccc2)=NNC1=O (configuration not stated)	2%	1%
O=C(Cc1ccccc1)NCc1ccncc1	-17%	2%
C#CCOCCOCCOCCNc1nc(N2CCN(C(=O)[C@H]([C@@H](C)CC)n3cc(CCCN=C(N)N)nn3)CC2)nc(N2CCN(C(=O)[C@H]([C@@H](C)CC)n3cc(CCC(=O)O)nn3)CC2)n1	-9%	5%
O=C(O)c1ccc(CNc2ncnc3nc[nH]c23)cc1	i	-15%
Cc1ccccc1OCC(=O)Nc1ccc2[nH]ncc2c1	-17%	-11%
CCOC(=O)N1CCC(c2cc(=O)n3[nH]c(-c4ccccc4)cc3n2)CC1	0%	-2%
Cc1cc(C)nc(SCC(=O)Nc2ccc(N3CCOCC3)c(Cl)c2)n1	x	u
O=C1CCN(C(=O)/C=C/c2ccccc2)c2ccccc21	4%	-4%
COc1cc(OC)cc(C(=O)NCc2cc(C)nc3ccccc23)c1	0%	0%
Cc1ccc(CN2CCSc3ccc(C(=O)N4CCN(c5cccc(C)c5C)CC4)cc32)cc1	-22%	-18%
O=C(NCCCN1CCCC1=O)c1ccc(CNS(=O)(=O)c2ccc(F)cc2)cc1	-3%[1.46 µM]	-23%
N=C(CC1CC(=O)NC(=O)C1)C1=C(O)CCCC1=O	-12%	-4%
Cc1ccc(-n2nc(C)c3c(C(=O)NCc4ccccc4)cc(C4CC4)nc32)cc1	-11%	-15%
Cc1cc(OC(=O)N(C)C)nc(-c2ccc(C)c(Cl)c2)n1	-4%[7.34 µM]	-8%[7.34 µM]
COc1ccccc1C(=O)NCc1nnnn1-c1ccc(C)c(C)c1	-17%	-9%
COc1cccc(CNC(=O)C2CCCN(c3cnccn3)C2)c1 (configuration not stated)	i	-17%
Cn1c(C(=O)NCc2ccc3c(c2)OCO3)cc2sccc21	i	-6%
CN(C)Cc1ccccc1Sc1ccccc1Br	i	1%
Cc1ccc(C)c(CN2C(=O)CSc3ccc(C(=O)NCC(C)CN4CCC(C)CC4)cc32)c1 (configuration not stated)	15%	3%
CC(C)CCN(C)C1CCN(S(=O)(=O)c2ccc(F)cc2)CC1	i	-14%
COc1cc(OC)c(NC(=O)N2CCc3c(sc4c3CCCC4)C2c2ccccc2)cc1Cl (configuration not stated)	-20%	-6%
Cc1ccccc1NC(=O)CN1C(=O)S/C(=C\c2ccc(-c3cc(C(=O)O)ccc3C)o2)C1=O	-15%	-10%
COc1ccc(C(C)(NC(C)=O)c2nc(-c3cccnc3)cs2)cc1 (configuration not stated)	4%	0%
CN(c1ccccc1)S(=O)(=O)c1cc(C(=O)OCC(=O)c2c(N)n(C)c(=O)n(C)c2=O)ccc1Cl	-2%	-22%
C=CCN1C(=O)N(c2ccccc2)C(=O)C1CC(=O)Nc1ccc(OC)cc1 (configuration not stated)	-11%	-9%
COc1ccc(/C=C/c2c([N+](=O)[O-])c(=O)n(C)c(=O)n2C)c(OC)c1OC	u	-22%
Cn1c(NCc2ccc(Cl)cc2)nc2ccccc21	-22%	-13%
COC(=O)C1C2C=CC3(CN(C4CCCC4)C(=O)C13)O2 (configuration not stated)	-8%	-6%
COc1cc2c(cc1OC)C(C)N(C(=O)c1nccnc1C(=O)O)CC2 (configuration not stated)	i	-7%

The closing two entries of the section above open the next one.
SMILES	Vaccinia mCherry	VACV Venus inh
COC(=O)C1C2C=CC3(CN(C4CCCC4)C(=O)C13)O2 (configuration not stated)	-8%	-6%
COc1cc2c(cc1OC)C(C)N(C(=O)c1nccnc1C(=O)O)CC2 (configuration not stated)	i	-7%
CCOC(=O)C1=C(C)N2C(=C(C#N)[C@@H]1c1ccc(C(=O)OC)cc1)SC[C@@]2(O)C(C)(C)C	-22%	-15%
CC1=Nc2ccccc2/C1=C/c1c(N)n2c(S(=O)(=O)CC(C)C)nsc2nc1=O	i	-2%
CCOC(=O)c1c(NC(=O)CSc2nc3ccccc3[nH]2)sc2c1CC(C)(C)NC2(C)C	u	u
COc1cc(C2CC(=O)Oc3cc(C)cc(C)c32)cc(OC)c1OC (configuration not stated)	u	-14%
COC(=O)c1scc(S(C)(=O)=O)c1-n1cccc1	-10%	-3%
CC1(C)CC(NS(=O)(=O)c2ccccc2)CC(C)(C)N1	x	-12%
COC(=O)c1ccc(CSc2nc3c([nH]c4ccccc43)c(=O)n2-c2ccc(OC)cc2)o1	-18%	-23%
COc1ccccc1CNC(=O)C1CCCN(S(=O)(=O)c2cnc[nH]2)C1 (configuration not stated)	10%	-2%
Cc1nn(-c2ccccc2)c(C)c1N	-19%	-2%
CCn1c(C(C)NC(=O)c2cccs2)n[nH]c1=S (configuration not stated)	-29%	-10%
CCOC(=O)C1=CN(Cc2cccc(F)c2)S(=O)(=O)NC1c1cccc(OC)c1 (configuration not stated)	i	-15%
CCOC(=O)N1CCC(=NNC(=O)COc2ccc(C#N)cc2)CC1	-3%	6%

An unsorted share of the library. Share with any hit: about 0.82%.
